Assay outcomes: PubChem BioAssay, National Center for Advancing Translational Sciences (NCATS)
miR-21 FLuc: miR-21 reporter, rising signal; Potency, µM (series often up to 38.3 µM), inactives show at the highest dose reporter change, positive = more light; 340,000 tested, under 10 active; HeLa miR-21 FLuc reporter, luciferase, 48 h; active = well fitted rising curve with a large enough effect; inconclusive = small, poorly fitted or top-dose-only effect; inactive = no such curve, though single readings can be large or run the other way;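 further: % of control where 0% means no effect; miR-21 action dims this reporter so a rising signal means less miR-21 action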
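HeLa cells stably expressing CMV-driven firefly luciferase with a downstream miR-21 binding sequence, endogenously expressing miR-21, were treated with titrations (up to about 40uM final) for 48 hours at 37 degree Celsius. Luciferase luminescence was read after lysis.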
Rango complex inh: Rango-importin beta binding inhibition | Rango CFP/YFP FRET sensor + importin beta, 45 min | hit rate 0.031% among 340,000 | Q14974 | Potency, µM (titrated, usually from 92.2 µM), for inactives: at the highest dose inhibition of complex formation; active = rising FRET ratio curve, often small or poorly fitted; inconclusive = mostly compound fluorescence or quenching in the first reads; inactive = flat curves in all reads;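 further: potency means the concentration at half of the fitted maximal effect; 0% = DMSO wells and 100% = buffer wells lacking importin beta; nearly all actives have a fitted effect of over 15% in size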
Target sequence (Q14974 whole entry, looked up): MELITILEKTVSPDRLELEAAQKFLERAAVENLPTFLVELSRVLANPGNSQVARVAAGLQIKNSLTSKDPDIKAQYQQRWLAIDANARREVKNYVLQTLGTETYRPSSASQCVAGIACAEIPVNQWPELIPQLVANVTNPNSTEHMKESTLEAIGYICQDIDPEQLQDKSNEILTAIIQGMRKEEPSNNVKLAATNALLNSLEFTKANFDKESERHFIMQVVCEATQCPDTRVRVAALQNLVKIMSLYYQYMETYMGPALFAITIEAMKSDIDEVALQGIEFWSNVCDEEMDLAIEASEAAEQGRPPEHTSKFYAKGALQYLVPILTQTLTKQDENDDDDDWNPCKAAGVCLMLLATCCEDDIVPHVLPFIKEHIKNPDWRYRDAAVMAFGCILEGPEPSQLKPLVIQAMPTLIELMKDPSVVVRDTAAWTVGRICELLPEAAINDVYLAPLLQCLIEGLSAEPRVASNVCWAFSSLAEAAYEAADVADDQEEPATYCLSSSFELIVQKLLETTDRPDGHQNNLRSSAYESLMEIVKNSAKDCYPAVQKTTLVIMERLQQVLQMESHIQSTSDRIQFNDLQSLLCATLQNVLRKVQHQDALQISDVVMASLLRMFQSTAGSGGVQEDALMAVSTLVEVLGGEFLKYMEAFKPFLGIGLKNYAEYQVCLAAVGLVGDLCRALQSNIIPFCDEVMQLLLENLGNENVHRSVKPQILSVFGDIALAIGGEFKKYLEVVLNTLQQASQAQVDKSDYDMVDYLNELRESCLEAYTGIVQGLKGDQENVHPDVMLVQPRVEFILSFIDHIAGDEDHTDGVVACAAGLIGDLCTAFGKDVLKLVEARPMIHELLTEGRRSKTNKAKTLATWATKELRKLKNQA
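FRET biosensor Rango (snurportin 1 IBB between N-terminal EYFP and C-terminal Cerulean), 50 nM in PBS/1 mM DTT/0.02% Tween-20/0.1% BSA, preincubated 5 min RT with compound; 0.125 microM importin beta added, 45 min RT, CFP/YFP FRET ratio read.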
Rango release inh: inhibition of RanGTP-driven Rango-importin beta dissociation. O95149+P62826. Biochemical FRET Rango-importin beta, RanGTP-induced dissociation. Potency, µM (titrated, usually from 46.1 µM), inactives show at the top dose activity change, negative = inhibition. hit rate 0.071% among 340,000; active means falling FRET ratio curve, often poorly fitted, with flat reads before Ran was added; inconclusive means other falling curves, or compound fluorescence or quenching; inactive means flat or rising ratio curve;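 further: potency means the concentration at half of the fitted maximal effect; % of control where 0% means no effect; nearly all actives have a fitted effect of over 45% in size; -100% = wells without RanGTP and RCC1; the record marks most hits as doubtful in a second field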
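Two FRET readings bracket the reaction: one 5 min after compound meets Rango–importin beta, another 45 min after RanGTP-RCC1 (0.6 uM Ran, 0.2 uM RCC1, 2 mM GTP) is added. Only the second defines inhibition.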
GLA inh pH 4.5: alpha-galactosidase A (human) inhibition, pH 4.5; AID 1467; purified enzyme, 4-MU-alpha-Gal fluorescence, pH 4.5; activity change, negative = inhibition, % at 105 µM; 230,000 tested, under 10 active; inconclusive = small, poorly fitted or top-dose-only inhibition, or a rising curve; inactive = flat fitted curve, though single readings scatter; no compound was filed as active;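 further: 0% = full activity with enzyme and -100% = basal without enzyme; dose as in the result columns while the protocol names 77 µM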
Active calls of the source: *; u = inconclusive; x = not tested or not shown; & = joins results of further samples; [ ] = remark or other dose. Not all compounds are listed; the hit share may differ from the screen's.

miR-21 FLuc	Rango complex inh	Rango release inh	GLA inh pH 4.5	Structure
2%	-0.8%	1%	x	O=C(NNC(=O)C1CC(c2cccs2)=NO1)Nc1ccccc1 (stereo not given)
18%	0.4%	-8%	-5	Cc1cc(C)c2nc(NNC(=O)c3ccc(S(=O)(=O)N4CC(C)CC(C)C4)cc3)sc2c1 (stereo not given)
-14%	0.1%	-2%	-9	Cc1ccc(/C=C/C(=O)Nc2cc(S(N)(=O)=O)ccc2O)cc1
-9%	u	-29%	3[21.1 µM]	Cc1cc(CNC(=O)Cc2ccc(F)cc2)c2ccccc2n1
2%	-0.6%	-1%	x	O=C(CNCc1ccc(Cl)cc1)Nc1ccc(C(=O)N2CCCCCC2)cc1
0%	-0.7%	0%	x	O=C(O)c1ccc2c(c1)C(=O)N(c1cccc3ccccc13)C2=O
-3%	-0.5%	-14%	10	CC(/C=N/N1CCN(c2ccc(C)cc2)CC1)=C\c1ccccc1
-5%	0.3%	3%	1	COc1ccc(-c2cc(=O)n(CCC#N)[nH]2)cc1
0%	-3.1%	-4%	5	c1ccc(Cn2nnnc2C(c2ccccn2)N2CCOCC2)cc1 (stereo not given)
0%	0.2%	8%	-6	CC1CC(C)CN(C(=O)COC(=O)CNS(=O)(=O)/C=C/c2ccccc2)C1 (stereo not given)
2%	-1.8%	-3%	-2	CCOC(=O)Cn1nc(C)c(NC(=O)COc2ccccc2[N+](=O)[O-])c1C
0%	4.2%	6%	4	Cc1ccc(N2CC(C(=O)Nc3ccc(C)c(S(=O)(=O)N(C)C)c3)CC2=O)cc1 (stereo not given)
-10%	2.1%	-10%	x	Cc1ccc(N(C(=O)CNC(=O)c2ccco2)C(C(=O)NC2CCCCC2)c2cccnc2)cc1C (stereo not given)
-5%	-0.4%	2%	x	CN(CCOc1ccccc1)C(=O)C1CCC(=O)N(CCN2CCOCC2)C1 (stereo not given)
4%	-1.5%	-3%	2	CCCc1cc2c(=O)c(-c3ccc4c(c3)OCCO4)c(C)oc2cc1OS(C)(=O)=O
-31%	-1.7%	0%	-4	ClCc1csc(-c2ccc(Cl)cc2)n1
0%	-0.2%	-2%	5	CSc1ccccc1NC(=O)C1C2CCC(C2)C1C(=O)O (stereo not given)
2%	-4.4%	-13%	3	N#Cc1ccc(/C=N/NC(=O)CCc2ccc(S(=O)(=O)N3CCOCC3)cc2)cc1
-6%	0.4%	2%	x	CCn1c(SCC(=O)NCc2ccc3c(c2)OCO3)nc2c(c1=O)SCC2
-34%	0.0%	-13%	-7	COCCn1c(=NC(=O)c2ccccc2[N+](=O)[O-])sc2cc(S(C)(=O)=O)ccc21
u	-4.3%	4%	4	Cn1c(=O)c([N+](=O)[O-])c(-n2ccnc2)c2ccccc21
x	3.0%	-9%	x	O=C1C=C(c2ccccc2Oc2ccccc2)C[C@@H](c2ccc3c(c2)OCO3)C1
0%	-0.4%	-16%	x	CN(CC(=O)Nc1ccccc1Br)C(=O)CNC(=O)c1ccc(Oc2ccccc2)cc1
-13%	0.1%	2%	x	Cn1c(-c2ccncc2)nc2ccccc21
-1%	-2.7%	18%	1	CC(=O)N/N=C(\C)C1COc2ccccc2O1 (stereo not given)
1%	-1.0%	19%	x	CC(C)CC(NC(=O)C1CCC(=O)N1)C(=O)NC(CC(C)C)C(=O)N1CCCC1C(N)=O (stereo not given)
-7%	-3.0%	2%	2	CSc1ccccc1NC(=O)CN(Cc1ccc(Cl)cc1)S(C)(=O)=O
15%	0.6%	1%	-3	CCN(CC)S(=O)(=O)c1ccc(S(=O)(=O)N(Cc2ccccn2)Cc2ccco2)cc1
-6%	2.3%	-8%	x	CC(C)[C@H](NC(=O)N1CCC(Cc2ccccc2)CC1)C(=O)O
-28%	u	u	5	Cc1ccc(C#N)c(SCc2nnc(-c3ccc(Cl)cc3)o2)n1
4%	-0.2%	-6%	8	O=S1(=O)N=C(N(Cc2cccs2)c2ccc(O)cc2)c2ccccc21
x	4.8%	-8%	x	Cc1nc(N)nc(N)c1CCCc1ccc(Cl)c(Cl)c1
-2%	0.8%	-10%	-3	COC(=O)Nc1nc(C)c(C(=O)N(C)C)s1
x	1.2%	-4%	x	O=C(CCS(=O)(=O)c1ccccc1)NNC(=O)CSc1ccccc1F
-3%	0.3%	8%	-3	Cc1cc(Br)ccc1NC(=O)CNC(=O)CN(C)Cc1nc2ccccc2c(=O)[nH]1
-7%	3.5%	28%	x	CC(CC(=O)NCc1ccc(Cl)cc1)c1ccccc1 (stereo not given)
14%	u	3%	x	COc1ccc2[nH]c3c(c2c1)CCN1C(=O)N([C@@H](C)C(=O)NCc2c(F)cccc2Cl)C(=O)[C@]31C
-24%	-0.7%	3%	x	O=c1ccc2cc3c(-c4ccccc4)coc3cc2o1
-1%	4.5%	10%	-2	COC(=O)[C@@H]1CCCN1Cc1nc(Cc2ccc(OC)c(OC)c2)no1
-1%	0.0%	0%	x	COC(=O)c1sccc1NC(=O)Nc1ccc(F)cc1
-13%	-1.3%	-9%	-4	COC(C(=O)Nc1ccc(Br)cc1F)c1ccccc1 (stereo not given)
-10%	-5.5%	3%	20	CCn1c(O)c(N=NC(=O)Cn2ccc(C(F)(F)F)n2)c2ccccc21
0%	-2.8%	1%	6	Cc1cc(C(F)(F)F)n(-c2nc(C(=O)Nc3cccnc3)cs2)n1
-50%	-2.7%	-7%	-6	Cc1ccc2nc(NCc3ccco3)c(C=NCc3ccco3)c(=O)n2c1
-8%	-0.5%	3%	-2	CCOC(=O)c1cccc(-n2c(C)nc3ccccc3c2=O)c1
-4%	-0.4%	-11%	x	Cn1c(-c2ccccc2)cc2ccccc21
x	-0.5%	-13%	x	Cc1cc(C(=O)COC(=O)c2cc(Cl)c(O)c(Cl)c2)c(C)n1C
-9%	0.5%	21%	-3	Cc1cc(C)cc(OCC(=O)NCc2nc(-c3ccccc3)no2)c1
-32%	0.3%	17%	5	O=C(N/N=C/C(Br)=C/c1ccccc1)NC1CCCCC1
-36%	-2.5%	-9%	-2	CC#CCCCC(=O)Nc1ccccc1C(=O)O
29%	-0.9%	-4%	-4	Cc1ccc(CSc2nc3ccncc3[nH]2)cc1
-4%	0.3%	0%	0	O=C(CSc1nnc(-c2cccs2)n1Cc1ccco1)c1ccc2c(c1)OCO2
0%	1.4%	-23%	4	Cc1cc(C)c(C(=O)/C=C/c2ccco2)c(=O)[nH]1
-14%	-3.4%	2%	5	Cc1nc(N2CCOCC2)nc2c1CCCC2
x	u	-25%	x	Cc1ccc(C2C(C(=O)c3cc4ccccc4o3)=C(O)C(=O)N2CCN(C)C)o1 (stereo not given)
x	0.5%	0%	x	COc1cc(OC)cc(C(=O)N[C@H](C(=O)OCC(=O)N2CCN(S(=O)(=O)c3ccc(C)cc3)CC2)C(C)C)c1
-62%	4.0%	13%	3	CCCC(=O)N1c2ccc(-c3csc(N)n3)cc2CC1C (stereo not given)
x	2.3%	5%	x	Cc1cc(C(=O)COC(=O)COc2ccc(C#N)cc2)c(C)n1C1CC1
7%	6.7%	6%	0	CCOC(=O)C(=N/O)/C(C)=N/NC(=O)C(=O)Nc1ccc(Cl)cc1
-21%	0.2%	11%	-3	Clc1ccc(Oc2nnnn2-c2ccccc2)cc1

Brought forward from above: 2 compounds; new compounds follow.
miR-21 FLuc	Rango complex inh	Rango release inh	GLA inh pH 4.5	Structure
7%	6.7%	6%	0	CCOC(=O)C(=N/O)/C(C)=N/NC(=O)C(=O)Nc1ccc(Cl)cc1
-21%	0.2%	11%	-3	Clc1ccc(Oc2nnnn2-c2ccccc2)cc1
9%	-3.4%	-6%	4	CCOC(=O)C1(Cc2ccccc2)CCN(Cc2cnc(N3CCOCC3)s2)CC1
-4%	-0.4%	-21%	x	O=C(CCN1CCCCC1)Nc1cccc(Br)c1
x	4.5%	u	x	Cc1c(C=Nc2ccc(S(=O)(=O)CCO)cc2)c(O)[nH]c(=O)c1C#N
-5%	-1.0%	0%	-1	Cc1ccc2c(c1)N(C(C)C(=O)NCc1cccs1)C(=O)CO2 (stereo not given)
6%	-0.2%	-10%	3	CN(C)S(=O)(=O)c1cccc2c1C(=O)c1ccccc1C2=O
0%	1.5%	-3%	-1	O=C(Cn1ccc([N+](=O)[O-])n1)NCc1cccnc1
-5%	2.9%	14%	-3	O=C(NCc1ccco1)c1cc(=O)c2ccccc2o1
-4%	u	u	-1	O=C(N/N=C/c1cc(Br)cc(Br)c1O)c1cccc(N2CCCC2=O)c1
x	-2.2%	-7%	x	Nc1ccc(O)c([N+](=O)[O-])c1
-7%	2.9%	6%	-3	O=C(NC1CCCCC1)C(c1ccc(Cl)cc1)N(C(=O)c1cnccn1)c1ccc2c(c1)OCO2 (stereo not given)
x	4.3%	-11%	x	OC[C@H]1O[C@@H](Oc2ccc3cc(Br)ccc3c2)[C@H](O)[C@@H](O)[C@H]1O
-13%	3.2%	2%	13	O=C(Nc1ccc(F)cc1)N(CCCN1CCOCC1)Cc1cc2cc3c(cc2[nH]c1=O)OCCO3
-12%	-2.1%	-10%	3	Cc1cc(C)n2cc(CSCc3ccccc3)nc2n1
0%	-0.1%	5%	x	NS(=O)(=O)c1ccc(NC(=O)CCC(=O)c2cccs2)cc1
-5%	-3.5%	5%	5	CCOC(=O)N1CCN(C(=O)CS(=O)(=O)Cc2nc(-c3ccccc3C)oc2C)CC1
x	-0.8%	3%	x	O=C(OCCc1cc2ccccc2c(=O)o1)N1CCOCC1
-2%	-2.4%	3%	x	COc1ccccc1OCCOc1ccc(/C=C2\C(=N)N3N=C(S(C)(=O)=O)SC3=NC2=O)cc1
-5%	-0.3%	-10%	4	O=C(COC(=O)C1CCN(C(=O)c2ccc(Cl)cc2)CC1)c1ccco1
-1%	0.3%	18%	5	CC1CCN(C(=O)c2ccc(CNc3c(N4CCCC4)c(=O)c3=O)cc2)CC1
x	-5.3%	u	x	CCN(CC(=O)NCc1ccc(Cl)cc1)C(=O)CCC(=O)c1ccc(C)cc1
-8%	-0.8%	-2%	-4	CCC(C)(C)N1CC(=O)N(Cc2ccccc2)C(c2ccc(OC)cc2)C1=O (stereo not given)
-12%	1.2%	u	-5	COc1ccc(-c2noc(CCCc3ccccc3)n2)cc1OC
2%	-0.2%	-17%	3	Cc1nc2ccccc2c2oc(C(=O)NCCN3CCN(C)CC3)cc12
4%	-3.9%	-4%	-17	Cc1ccsc1C(=O)C1CCCN(Cc2cn(C)nc2-c2ccccc2)C1 (stereo not given)
x	0.1%	1%	x	CN(C(=O)COC(=O)c1ccc2ccccc2n1)C1CCCCC1
-1%&-5%	0.5%	1%	x	Cc1cc2[nH]c(=O)c(=O)[nH]c2cc1S(=O)(=O)N1CCN(c2cccc(C(F)(F)F)c2)CC1
-7%	-3.4%	38%	x	Cc1noc(C(=O)Nc2cc(Cl)ccc2O)c1Cl
x	-0.8%	-1%	x	O=C(CN1CCN(C(C(=O)Nc2ccc(Cl)cc2C(F)(F)F)c2ccccc2)CC1)NC1CC1 (stereo not given)
4%	3.7%	-10%	x	CC1=C(C(=O)Nc2ccc(C(=O)N3CCN(c4ccccc4F)CC3)cc2)SCCO1
3%	-1.7%	-13%	x	Cc1c(CC(=O)O)c(=O)oc2c(C)c3occ(-c4ccc(F)cc4)c3cc12
x	-4.9%	-3%	x	Cc1cc(C(=O)COC(=O)C2=COCCO2)c(C)n1-c1cccc(F)c1
-11%	6.0%	-4%	1	CS/C(=N\S(=O)(=O)c1cccs1)Nc1ccc(N2CCOCC2)cc1
0%	u	-2%	-1	COc1ccc(OCCC(=O)OCC(=O)Nc2ccc(S(=O)(=O)N3CCOCC3)cc2)cc1
-2%	6.1%	-1%	-1	CC(=O)c1cccc(NC(=O)N2CCCC2C(=O)NCc2ccc3c(c2)OCO3)c1 (stereo not given)

Some of these compounds in order of molecular weight, rising.
miR-21 FLuc	Rango complex inh	Rango release inh	GLA inh pH 4.5	Structure
x	-4.9%	-3%	x	Cc1cc(C(=O)COC(=O)C2=COCCO2)c(C)n1-c1cccc(F)c1
-11%	6.0%	-4%	1	CS/C(=N\S(=O)(=O)c1cccs1)Nc1ccc(N2CCOCC2)cc1
0%	u	-2%	-1	COc1ccc(OCCC(=O)OCC(=O)Nc2ccc(S(=O)(=O)N3CCOCC3)cc2)cc1
